Bead autofluor = compound fluorescence in toxin protease inhibitor counterscreen; compound autofluorescence counterscreen, microsphere flow cytometry; active compounds read high; fluorescence intensity (concentration not given with the values); hit rate 3.1% among 360,000; AID 624483;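 active = at least 3 SD above the mean of all compounds, about 16000 in these data; inconclusive = too few beads counted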;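 note: 100 nL of 1 mM stock went into each well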
Sa ugtP lethal = compounds lethal to S. aureus RN4220 ugtP deletion mutant; OD600 growth, 16 h; some inactives read as strong as hits; growth inhibition, % (no concentration beside the values); hit rate 0.54% among 330,000;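 active = z-score under -3 and OD600 up to 0.15 on both plates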;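 note: plate controls were untreated wells for no effect and antibiotic for full effect; wells of about 80 µL received 100 nL stock; the first replicate is given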
Sa RN4220 lethal = S. aureus RN4220 growth inhibition | inhibition, % (test concentration not listed) | AID 1259311 | OD600, 16 h | hit rate 0.33% among 330,000;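 active = z-score of -3 or lower and OD600 up to 0.18 on both plates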;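 note: plate controls were untreated cells for no effect and reference antibiotic for full effect; stock transfer was 100 nL into about 80 µL; one replicate is shown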
BJeLR lethal = kills HRASV12-expressing BJeLR cells. BJeLR (HRASV12) viability, CellTiter-Glo ATP luminescence, 48 h; reference of the scale not given here. inhibition, % (test concentration not listed). hit rate 0.17% among 300,000. AID 1554;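 active = replicate mean above 50%; inconclusive = above 50% but judged a plate artefact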;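 note: 50 nL library stock added to about 25 µL; numbers are from one replicate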
PrP UTR inh = suppresses PrP 5' UTR mRNA reporter expression | AID 488862 | hit rate 0.35% among 340,000 | inhibition, % (no concentration beside the values) | cell-based PrP 5' UTR mRNA reporter, plate reader;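 active = every replicate at 50% or more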;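 note: 0 = median of the neutral control wells; tested in H4 reporter cells; numbers are from one replicate; inactives centre near -14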
Mtb hypoxia inh = Mtb hypoxia fluorescent reporter inhibition. M. tuberculosis hypoxia-regulated fluorescent reporter, fluorescence. fluorescence inhibition, % (concentration not given with the values). hit rate 0.1% among 300,000. AID 1159583;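 active = 35 to 45% if threefold the growth effect, above 45% if 1.5-fold the growth effect; inactive = the rest, general growth blockers included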;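 note: wells of about 50 µL received 100 nL stock; 0% = vehicle wells and 100% = reference inhibitor wells; whole bacteria with a GFP reporter of the hypoxia response; strong numbers were not always called active; many hits fall short of the cut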
Mtb hypoxia inh growth = further read-out of Mtb hypoxia inh, marked with its call; growth inhibition, %; measured here: M. tuberculosis growth (absorbance);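 0% = vehicle and 100% = reference antibiotic; read after six days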
Starred values were filed as active, the others as inactive; u = inconclusive; x = not tested or not shown. Rows were taken by chance; overall some 4% were active at least once.

SMILES	Bead autofluor	Sa ugtP lethal	Sa RN4220 lethal	BJeLR lethal	PrP UTR inh	Mtb hypoxia inh	Mtb hypoxia inh growth
Cc1ccc(S(=O)(=O)NC2CC(C)(C)NC(C)(C)C2)cc1C	4120	x	x	3.1	-10.0	x	x
O=c1cc(CO)oc(CN2CCN(c3ccccc3F)CC2)c1O	4726	3.4	2.1	5.6	-12.3	x	x
O=C(NCc1ccccn1)Nc1ccc(F)c(Cl)c1	5701	5.1	3.0	0.1	-21.0	2.8	-0.5
CCOC(=O)C1C(=O)C(=O)N(C(C)C)C1C(=O)OCC (stereo not drawn)	4708	-1.1	5.5	x	-13.8	17.5	7.5
CCCCNCc1cccn1-c1ccccc1	2807	-1.6	5.4	-8.1	-11.1	2.2	-0.4
COc1ccc(CCNC(=O)CN(c2ccccc2OC)S(C)(=O)=O)cc1	u	8.7	5.1	10.7	-18.5	0.7	1.5
CCCCc1nnc(NC(=O)CN(C)S(=O)(=O)c2ccc(C)cc2)s1	5945	6.4	1.5	0.6	-11.6	-0.8	1.0
COc1cccc(Cn2cccc(NC(=O)NC3CCCCC3)c2=O)c1	4490	11.4	-1.4	-5.4	-10.2	x	x
Cc1ccc(C(=O)Cc2nnc(C)s2)cc1	2607	-0.9	5.1	15.9	-77.6	6.9	7.9
COc1ccc(C2C(C(C)=O)=C(C)N=c3sc(=Cc4cc(C)n(C)c4C)c(=O)n32)c(OC)c1 (stereo not drawn)	x	-9.3	2.2	x	x	-17.7	5.6
CCOc1ccccc1NC(=O)NCCN1CCCCC1	x	9.1	3.6	-4.3	3.5	4.5	-0.6
CCCCCC(=O)N1CC2(CC(c3cccc(NC(=O)COc4ccc(Cl)cc4)c3)=NO2)C[C@@H]1C(N)=O (stereo partly drawn)	3899	x	x	0.3	-8.4	x	x
CCOC(=O)C1(CC2CCCCO2)CCN(C(=O)Nc2ccc(C)c(C)c2)CC1 (stereo not drawn)	4124	-5.8	1.5	-12.1	-20.9	3.8	1.6
CCOc1ccc(CN(C)CC(=O)c2c(N)n(Cc3ccccc3)c(=O)n(CC)c2=O)cc1OC	2799	-8.3	0.4	2.1	2.1	x	x
Cc1ccccc1OCCn1cc(C(=S)N2CCCC2)c2ccccc21	3606	-3.3	-2.0	9.0	-18.5	x	x
Cc1[nH][nH]c(=O)c1N=Nc1ccc(F)cc1	3156	7.8	7.0	-2.1	-16.0	8.9	3.7
COc1ccc(Cl)cc1NC(=O)CN(C)C(=O)c1ccc2c(c1)OCCO2	3931	3.5	0.2	1.9	-37.9	1.3	-6.4
O=C(O)CC(CC(=O)Nc1ccc(Oc2ccccc2)cc1)c1ccccc1 (stereo not drawn)	5920	10.9	0.0	-4.2	-53.9	12.1	-4.0
CC(C)(NC(=O)c1ccccc1)c1nc2ccccc2s1	3908	-1.3	-0.3	-4.7	-17.0	-1.7	-12.6
Cc1nnc(SCC(=O)N(C)C2CCCCC2)n1C	3736	1.6	0.6	x	-2.9	-1.4	9.9
CCOC(=O)C1C2COc3ccc(OC)cc3C2N2C(=O)CN(Cc3ccc(OC)cc3)C(=O)[C@@]12C (stereo partly drawn)	x	4.1	3.9	x	x	2.9	7.6
CCCCN(C(=O)C1=COCCO1)c1c(N)n(CCCC)c(=O)[nH]c1=O	u	2.0	5.0	11.3	-13.1	2.1	2.0
O=C(COC(=O)CCC(=O)c1cccs1)Nc1cc(S(=O)(=O)N2CCOCC2)ccc1Cl	8921	3.1	5.2	0.2	-16.9	-2.8	4.5
Cc1c2c(n3c(nc4ccccc43)c1C#N)N(CCCN(C)C)CC2	3981	5.1	1.9	2.5	-27.3	11.1	3.4
Nc1nnc(SCC(=O)c2ccc([N+](=O)[O-])cc2)s1	4091	54.5	95.3*	-7.6	-28.4	3.8	5.9

By substructure, the compounds so far containing fluorine.
SMILES	Bead autofluor	Sa ugtP lethal	Sa RN4220 lethal	BJeLR lethal	PrP UTR inh	Mtb hypoxia inh	Mtb hypoxia inh growth
O=c1cc(CO)oc(CN2CCN(c3ccccc3F)CC2)c1O	4726	3.4	2.1	5.6	-12.3	x	x
O=C(NCc1ccccn1)Nc1ccc(F)c(Cl)c1	5701	5.1	3.0	0.1	-21.0	2.8	-0.5
Cc1[nH][nH]c(=O)c1N=Nc1ccc(F)cc1	3156	7.8	7.0	-2.1	-16.0	8.9	3.7

Already shown: an excerpt of the list.
SMILES	Bead autofluor	Sa ugtP lethal	Sa RN4220 lethal	BJeLR lethal	PrP UTR inh	Mtb hypoxia inh	Mtb hypoxia inh growth
Cc1ccc(S(=O)(=O)NC2CC(C)(C)NC(C)(C)C2)cc1C	4120	x	x	3.1	-10.0	x	x
O=c1cc(CO)oc(CN2CCN(c3ccccc3F)CC2)c1O	4726	3.4	2.1	5.6	-12.3	x	x

The listing continues.
SMILES	Bead autofluor	Sa ugtP lethal	Sa RN4220 lethal	BJeLR lethal	PrP UTR inh	Mtb hypoxia inh	Mtb hypoxia inh growth
COC(=O)/C=C/c1cnc[nH]1	3576	x	x	-3.9	-17.4	x	x
CCOC(=O)C1(CC/C(C)=N\NC(N)=O)CC(C)(C)OC1=O (stereo not drawn)	2125	x	x	9.2	-8.4	x	x
Cc1ccc(S(=O)(=O)CCC(=O)OCc2ccccc2)cc1	2775	11.4	2.6	-1.1	-16.7	13.5	9.6
CCn1c(=O)[nH]c(=O)c2c(N)c(C(=O)c3ccccc3OC)sc21	6696	3.1	4.5	-6.1	-2.3	13.7	6.5
O=C1Nc2ccc([N+](=O)[O-])cc2OC1CCN1CCOCC1 (stereo not drawn)	4508	5.3	7.6	6.4	-34.1	12.6	-2.2
O=C(CNc1cccc(S(=O)(=O)N2CCOCC2)c1)Nc1ccc(C(F)(F)F)cc1	x	-1.6	0.2	-3.5	-3.2	0.3	7.4
COc1cc(C(=S)N2CCCC2)ccc1OC(=O)c1ccc(Cl)cc1[N+](=O)[O-]	4735	1.2	26.9	-6.8	-80.7	-0.9	14.3
COC(=O)C(=NOCc1ccc(C#N)cc1)c1c(C)nn(C)c1C	x	2.0	-2.2	x	x	-4.2	11.1
NC(=O)c1ccc(N2CCCCCC2)c([N+](=O)[O-])c1	2202	1.1	4.8	1.8	-8.6	7.9	0.3
Cc1cccc(NC(=S)NNC(=O)c2csc3c2CCC(C)C3)c1 (stereo not drawn)	16077	-10.2	10.9	5.7	-34.1	-3.3	1.4
CCC1Oc2ccc(C)cc2N(CC(=O)NCCCN2CCCCC2C)C1=O (stereo not drawn)	5358	x	x	4.2	-27.3	x	x
CCOC(=O)C1CCN(C(=O)c2cccc(S(=O)(=O)Nc3ccc(C)cc3C)c2)CC1	3270	10.3	5.4	11.7	0.2	3.9	1.5
COc1cc2cc(CCCOC(=O)c3cccc(Br)c3)oc(=O)c2cc1OC	4162	-3.3	1.1	x	-4.5	-3.4	3.5
COc1ccc2[nH]c3c(NCCC4=CCCCC4)ncnc3c2c1	5051	86.7	53.7	u	-69.5	-5.2	4.6
S=C(NCCNC(=S)Nc1ccccc1Cl)Nc1ccccc1Cl	3417	2.5	3.0	-6.1	-11.0	-1.3	5.6
NNC(=O)c1ccccc1CO	x	-1.0	1.1	6.1	x	x	x
CCOC(=O)c1cnn(-c2ncnc3sc4c(c23)CCC4)c1N	9230	2.6	18.5	0.6	-5.1	16.3	16.9
Cn1c(C(=O)OC(C(=O)NC(C)(C)C)c2cccnc2)cc2sccc21 (stereo not drawn)	3307	-4.5	5.1	5.7	-24.5	-6.1	-1.1
Cc1nn(-c2ccccc2)c2c1c(C)c(CCC(=O)N1CCOCC1)c(=O)n2C	4944	0.0	2.2	14.5	-7.0	13.4	11.8
CCOC(=O)c1csc(NC(=O)CN2CCCCC2)n1	3514	8.1	3.6	-6.4	-14.0	-0.7	8.5
O=C(Cn1cnc2cc([N+](=O)[O-])ccc2c1=O)Nc1ccc2c(c1)CCC2	3267	1.7	-1.8	-7.8	-24.3	x	x
Cc1nc(-c2nc(-c3c(C(=O)NN)noc3C)cs2)cs1	2023	9.8	5.6	7.7	-27.8	-6.2	-11.5
CCC(=O)Nc1c2c(nn1-c1cccc(Cl)c1)CSC2	5398	2.3	4.0	5.8	-31.8	3.7	10.4
CCCC1Cc2nc(N3CCCCC3)c(C#N)cc2CO1 (stereo not drawn)	11321	2.3	7.1	5.9	-35.0	-0.3	10.1
COCCCn1cc(C(=O)c2cc(Br)ccc2O)cc(C#N)c1=O	5490	6.4	6.1	1.5	-48.5	8.4	5.9

Other results follow:
SMILES	Bead autofluor	Sa ugtP lethal	Sa RN4220 lethal	BJeLR lethal	PrP UTR inh	Mtb hypoxia inh	Mtb hypoxia inh growth
Cn1c(/C=C/c2ccccc2)nc2ccccc2c1=O	3385	-6.0	7.0	6.8	-38.6	12.5	-2.8
Cc1nc(SCc2cccc(Oc3ccccc3)c2)n[nH]1	3660	7.8	7.3	1.5	-39.9	-1.6	13.0
Cc1cccc(NCc2nc3ccccc3n2C)c1	10384	3.6	-3.4	1.9	-49.4	6.9	9.3
COC(=O)c1c(C)[nH]c(C)c1C(C)=O	x	-5.7	-4.0	-7.5	-4.0	-6.0	4.0
Cc1ccc(CNC(=O)Cc2ccc(-n3cccc3)cc2)cc1	2536	2.8	1.8	21.0	-22.9	1.7	12.2
CCc1cc(Cn2nc(-c3ccccc3)cc2C(=O)NCc2ccccc2OC)on1	3990	x	x	-11.7	-3.7	x	x
N#CCCN(C(=S)NC(=O)C1CCCCC1)c1ccccc1F	3648	1.1	-0.2	x	-17.7	6.0	8.0
C(CCc1nn[nH]n1)CCc1nn[nH]n1	1935	8.0	3.4	3.8	-16.5	-0.3	2.6
O=C(NNC(=O)c1cc(-c2cccc(Br)c2)nc2ccccc12)c1csc(N2CCOCC2)n1	u	-10.6	-1.5	4.6	-3.2	1.4	3.4
CCOc1nc(C)nc(NC(=O)NS(=O)(=O)c2ccccc2Cl)n1	8708	7.3	1.6	-2.9	-23.6	7.2	3.4
CC(C)n1c(-c2ccccc2)nc(=S)c2c1CCCC2	x	0.7	5.0	-2.4	x	0.4	4.3
Cc1ccc2nc(COc3ccc(N(C)S(=O)(=O)c4ccccc4)cc3)cc(=O)n2c1	3759	8.1	5.3	10.8	-6.5	2.5	-0.3
O=S(=O)(NCC1CCCO1)c1ccc(Cl)nc1 (stereo not drawn)	5312	8.4	2.7	2.9	-5.5	-1.6	1.6
Cc1ccc(SC[C@H](Cc2ccccc2)N2CCN(CCc3ccccc3)CCC2=O)cc1	3438	x	x	-9.9	3.2	x	x
COC(=O)C1=C(CS(=O)(=O)c2ccccc2)NC(=O)NC1c1ccc(O)cc1 (stereo not drawn)	4125	-0.1	-2.2	1.4	-15.0	-4.5	-4.1
COc1cccc(NC(=O)N2CCCC2C(=O)NC2CCCCC2)c1 (stereo not drawn)	6159	0.4	1.2	3.6	-31.7	-4.4	2.1
Cc1ccc(C(=O)OC(C)C(=O)Nc2ccc(Cl)cn2)s1 (stereo not drawn)	3118	9.4	3.0	x	-15.4	1.2	1.0
COc1ccc(S(=O)(=O)CCc2nnc(NC(=O)c3ccc(F)cc3)s2)cc1	6020	-4.7	1.4	-17.0	-13.5	14.2	0.6
COc1ccccc1-c1nnc(SCC(=O)Nc2ccccc2)o1	10334	7.5	4.3	5.1	-60.1	10.5	2.0
N#CCc1nn(-c2ccccc2)c(N)c1C#N	2861	-4.2	-14.5	-3.5	-0.8	2.1	-0.9
O=C(NC1CCCC1)c1csc2c1CCCC2	19286*	-10.9	-3.9	1.4	-29.2	10.1	20.3
CCOC(=O)C(=CNc1cc(C)ccn1)C(=O)OCC	2088	-2.0	5.3	-1.7	-11.2	3.4	1.4
Cc1cccc(C)c1NC(=O)C1C2C=CC(C2)C1C(=O)O (stereo not drawn)	3546	12.4	3.9	-0.5	-9.8	1.3	8.0
COc1cccc(C(=O)OCC(=O)N2CCc3ccccc3C2)c1OC	3886	0.5	4.5	x	x	-2.4	10.3
COc1ccc(C(=O)OCC2CC(c3ccccc3)=NO2)cc1OC (stereo not drawn)	2088	13.2	4.8	-9.9	-10.9	0.0	7.4
O=C(Nc1ccc(F)c(Cl)c1)C1CCCN(C2=NS(=O)(=O)c3ccccc32)C1 (stereo not drawn)	6761	6.8	2.0	x	-11.6	9.9	5.3
CCOC(=O)c1c(C)[nH]c(C)c1C(=O)CSc1nc2ccccc2c(=O)n1-c1ccc(C)cc1	2434	0.2	1.0	0.5	-14.9	13.2	10.9
CCOc1ccc(C=NNc2ccccn2)cc1OC	x	0.2	7.5	x	x	-2.0	6.3

High-throughput results as filed in PubChem BioAssay.
